# Bioassay records as filed in PubChem BioAssay.
# HCMV NEC inh: cytomegalovirus nuclear egress complex inhibition; AID 1918969; hit rate 0.15% among 190,000; HTRF UL50-UL53 interaction, normalized percent inhibition; inhibition, % (test concentration not listed);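 active = both replicates at 50% or more, plus weaker picks with an unusually low signal ratio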;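 note: stock transfer was 100 nL into about 20 µL; 0% = negative control wells and 100% = wells with untagged competitor protein; inactives centre near -12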
# Sa growth inh: inhibitors of Staphylococcus aureus growth at 42 °C | AID 720641 | relative growth, % (concentration not given with the values) | S. aureus RN4220 growth, OD600, 20 h; stronger effect = lower value | hit rate 0.53% among 170,000;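 active = growth at 42 °C up to 50% and 20 or more points under that at 30 °C, or under 10% at both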;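 note: 300 nL library stock went into each well; scaled to the means of positive and negative controls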
# GIV Gai3 FP: GIV-Galpha-i interaction inhibition; P08753; Galpha-i3/FITC-GIV peptide fluorescence polarization, 90 min; stronger effect = lower value; scaled: aluminum fluoride 0%, vehicle 100%; percent of control (FP), % (no concentration beside the values); hit rate 0.42% among 210,000; AID 1224905;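 active = replicate mean at 85% of control or lower, very high polarization wells dropped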;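 note: wells of about 15 µL received 100 nL stock; the first replicate is given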
# Target sequence (P08753 whole entry, looked up): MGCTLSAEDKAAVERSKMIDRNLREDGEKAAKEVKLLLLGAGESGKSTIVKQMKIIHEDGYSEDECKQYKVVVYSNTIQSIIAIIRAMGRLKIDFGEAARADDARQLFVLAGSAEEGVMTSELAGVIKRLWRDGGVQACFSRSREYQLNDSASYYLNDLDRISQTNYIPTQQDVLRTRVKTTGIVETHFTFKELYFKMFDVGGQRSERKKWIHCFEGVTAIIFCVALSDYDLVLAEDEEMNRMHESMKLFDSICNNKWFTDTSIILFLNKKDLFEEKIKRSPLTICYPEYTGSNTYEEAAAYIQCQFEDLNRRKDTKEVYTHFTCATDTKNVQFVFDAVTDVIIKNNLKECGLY
# Sa growth inh second temp: further read-out of Sa growth inh, marked with its call; relative growth, %; measured here: growth at 30 °C;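 optical density after 20 h as mean of two plates; 100% = untreated growth and lower means inhibition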
# An asterisk follows results filed as active; . = no result given; & = joins results of further samples.
SMILES	HCMV NEC inh	Sa growth inh	Sa growth inh second temp	GIV Gai3 FP
COc1cccc(NC(=O)C2CC(=O)N(c3cccc(-c4noc(C)n4)c3)C2)c1 (stereo not given)	-33	.	.	101
O=C1Cc2cc(S(=O)(=O)Nc3ccc(OC(F)(F)F)cc3)cc3c2N1CCC3	.	122	99	101
COc1ccc(C)cc1NC(=O)c1oc2ccc(S(=O)(=O)N3CCCCC3)cc2c1C	.	96	94	98
Cc1nccc(-c2cc(-c3ccc(Cl)cc3Cl)no2)n1	-1	98	101	102
NC(=O)c1ccsc1NC(=O)c1csc2c1CCCC2	-17	112	72	119
CN(CC(=O)N1CCc2ccccc21)Cc1ccccc1	-6	116	92	.
Cn1c(-c2c(-c3ccccc3)n[nH]c2-c2cccs2)nc2ccccc21	-1	83	111	.
COc1cccc(CNC(=O)C(Cc2ccccc2)n2cccc2)c1 (stereo not given)	.	110	84	102
CSc1nc(C(F)(F)F)nc(N)c1C#N	-1	97	90	95
Cn1c(=O)[nH]c(=O)c2c1ncn2CCN1CCOCC1	0	113	85	.
CCc1ccc(NC(=O)Cn2c(=O)n(Cc3nc(C)no3)c(=O)c3cc4c(cc32)OCO4)cc1	1	112	94	104&112
C(=N\n1cnnc1)/c1ccc(OC2OCCOC2Oc2ccc(/C=N/n3cnnc3)cc2)cc1 (stereo not given)	-18	81	87	.

# Reprinted from the part before: 5 compounds, then new ones.
SMILES	HCMV NEC inh	Sa growth inh	Sa growth inh second temp	GIV Gai3 FP
COc1cccc(CNC(=O)C(Cc2ccccc2)n2cccc2)c1 (stereo not given)	.	110	84	102
CSc1nc(C(F)(F)F)nc(N)c1C#N	-1	97	90	95
Cn1c(=O)[nH]c(=O)c2c1ncn2CCN1CCOCC1	0	113	85	.
CCc1ccc(NC(=O)Cn2c(=O)n(Cc3nc(C)no3)c(=O)c3cc4c(cc32)OCO4)cc1	1	112	94	104&112
C(=N\n1cnnc1)/c1ccc(OC2OCCOC2Oc2ccc(/C=N/n3cnnc3)cc2)cc1 (stereo not given)	-18	81	87	.
COc1ccc(Cl)cc1NC(=O)CN(C)C(=O)Cc1coc2c(C)c(C)ccc12	-31	100	75	.
O=C1COc2cc(S(=O)(=O)N3CCC(C(=O)N4CCOCC4)CC3)c(Cl)cc2N1	-8	.	.	100
Cn1nnc2c(C(N)=O)ncn2c1=O	-124&-50&-92&-120&-175	95&100	91&93	97
O=C(COc1ccccc1)NCCc1csc(-c2ccc(Cl)cc2)n1	.	117	98	109
COc1ccc(-c2nnc(SCC(=O)N3CCC(C)CC3)o2)cc1	-8&-20	103	77	102&93
CCOc1ccc(NC(=O)CCS(=O)(=O)c2cc3c(cc2C)NC(=O)CO3)cc1	-21&-22	93	80	100&109
CCCn1c(=O)c2ccccc2n2c(SCC(=O)N3CCN(C(=O)OCC)CC3)nnc12	-7	98	94	.
COc1ccc(OCC(O)Cn2c(C3CC(=O)N(C(C)(C)C)C3)nc3ccccc32)cc1 (stereo not given)	5	.	.	102
NC(=O)COC(=O)c1ccc(F)cc1Cl	-6	131	88	.
CC(C)NC[C@H](O)c1ccc(O)c(O)c1	-22&-26&-10	.	.	100&100
Cc1ccc2occ(CC(=O)N3CCN(c4cccc(Cl)c4)CC3)c2c1	10	106	58	107
O=C1CC(c2ccccc2)NC(=S)N1 (stereo not given)	4	104	84	104

# Some of the entries so far, as labelled records.
SMILES: Cc1ccc2occ(CC(=O)N3CCN(c4cccc(Cl)c4)CC3)c2c1
- HCMV NEC inh: 10
- Sa growth inh: 106
- Sa growth inh second temp: 58
- GIV Gai3 FP: 107

SMILES: CC(C)NC[C@H](O)c1ccc(O)c(O)c1
- HCMV NEC inh: -22&-26&-10
- Sa growth inh: .
- Sa growth inh second temp: .
- GIV Gai3 FP: 100&100

# Arranged by length of the SMILES (smallest number first): 5 of the compounds above.
SMILES	HCMV NEC inh	Sa growth inh	Sa growth inh second temp	GIV Gai3 FP
NC(=O)COC(=O)c1ccc(F)cc1Cl	-6	131	88	.
COc1ccc(-c2nnc(SCC(=O)N3CCC(C)CC3)o2)cc1	-8&-20	103	77	102&93
Cc1ccc2occ(CC(=O)N3CCN(c4cccc(Cl)c4)CC3)c2c1	10	106	58	107
CCOc1ccc(NC(=O)CCS(=O)(=O)c2cc3c(cc2C)NC(=O)CO3)cc1	-21&-22	93	80	100&109
COc1ccc(OCC(O)Cn2c(C3CC(=O)N(C(C)(C)C)C3)nc3ccccc32)cc1 (stereo not given)	5	.	.	102

# The list goes on:
SMILES	HCMV NEC inh	Sa growth inh	Sa growth inh second temp	GIV Gai3 FP
Cc1ccc(C(=O)OCC(=O)N2CCC(Cc3ccccc3)CC2)cc1N	-45	92	90	.
CCNC(=S)N/N=C/c1c(F)cccc1F	0	118	96	.
COc1cccc(-c2noc(-c3cccn4c(=O)c5ccccc5nc34)n2)c1OC	-34	.	.	124
COc1ccc(-c2oc3ccc(OC)cc3c2C(=O)Nc2ccc3c(c2)OCCO3)cc1	-4	.	.	103
CCc1ccc(NC(=O)N2CCN(S(=O)(=O)c3ccc4c(c3)NC(=O)CO4)CC2)cc1	13	.	.	113
CN1CCC(N(C)C2CCN(Cc3ccccc3)CC2)CC1	-2	96	106	100
CC(C)(C)OC(=O)N1CCC(c2c(C(=O)Nc3ccc4c(c3)OCO4)cnn2-c2ccccc2)CC1	.	78	81	102
CCc1ccc(C(=O)N2CCC(c3nc4c(nnn4Cc4ccc(F)cc4)c(=O)[nH]3)CC2)cc1	-3	.	.	100
O=S(=O)(c1sc(Br)cc1Br)N1CCCC1	-2	98	95	99
O=C(CSc1nccc(-c2cc(-c3ccccc3)no2)n1)Nc1ccc(Cl)cc1	2	95	109	105
Cc1ccc(C)c(N2CCN(Cc3nnc(-c4ccc5c(c4)OCO5)o3)CC2)c1	-13	115	84	107
COc1ccccc1N1CCN(C(=O)CCCC(=O)O)CC1	.	98	88	104

# Another view of part of the listing above:
# Each structure is followed by: HCMV NEC inh | Sa growth inh | Sa growth inh second temp | GIV Gai3 FP
CN1CCC(N(C)C2CCN(Cc3ccccc3)CC2)CC1
    -2 | 96 | 106 | 100
CC(C)(C)OC(=O)N1CCC(c2c(C(=O)Nc3ccc4c(c3)OCO4)cnn2-c2ccccc2)CC1
    . | 78 | 81 | 102
CCc1ccc(C(=O)N2CCC(c3nc4c(nnn4Cc4ccc(F)cc4)c(=O)[nH]3)CC2)cc1
    -3 | . | . | 100

# Additional records follow:
SMILES	HCMV NEC inh	Sa growth inh	Sa growth inh second temp	GIV Gai3 FP
O=C(CN1C(=O)S/C(=C\C=C\c2ccccc2)C1=O)Nc1cccc(O)c1	.	110	67	102
CCOC(=O)CSc1nnc2n(-c3ccccc3)c(=O)c3c4c(sc3n12)CC(C(C)(C)C)CC4 (stereo not given)	-38	106	90	103
CC1CN(C(=O)CCC(=O)N2CCN(c3ccccn3)CC2)c2ccccc2O1 (stereo not given)	10	84	82	103&104
Cc1ccc(S(=O)(=O)NCCSc2nnc3nc(C)cc(C)n23)cc1	2	96	80	100
N/C(=N\O)c1cccc(C(=O)O)c1	-12	105	79	101
CCOC(=O)C1CCN(C(=O)CSc2c3c(nc4ccccc24)CCC3)CC1	5	.	.	104
CC1CCCN(S(=O)(=O)c2cc3c(cc2Cl)NC(=O)CO3)C1 (stereo not given)	.	106	80	114
COc1ccccc1-c1coc2c(CN(C)C3CCCCC3)c(O)ccc2c1=O	2	95	91	.
N#C/C(N)=C(\C#N)NCc1c(F)cccc1Cl	-3	114	93	108
C=CCc1cc(C)ccc1OCCNC(C)C	-18	106	95	.
Cn1nccc1C(=O)NCc1ccc2c(c1)CCN2C(=O)c1ccc(F)cc1	.	136	69	102
COc1cc2nc(SCC(=O)Nc3ccc(F)cc3)n3nc(CCn4c(C)nc5ccccc54)nc3c2cc1OC	12	101	98	100
Nc1ccc(C(=O)NCC2CCCO2)cc1 (stereo not given)	1	86	91	100
CC1=C(C(=O)Nc2ccccc2)C(c2ccc(C)cc2)n2nc(SCc3ccccc3C)nc2N1 (stereo not given)	-13	113	85	102
CC1CCCN(Cc2c(O)ccc3c(=O)c(-c4ccccc4Cl)c(C(F)(F)F)oc23)C1 (stereo not given)	-18	102	85	102
CCCn1c(=O)[nH]c2cc(-c3noc(/C=C/c4ccccc4Cl)n3)ccc21	-16	.	.	104
CCCCN1C(=O)CCC(C(=O)O)C1c1ccccc1OC (stereo not given)	-28	85	87	.
Nc1nc(N2CCCCC2)ncc1F	-22	94	85	188
Cc1nc2ccc(C(F)(F)F)cc2n1CCc1ccccc1	-3	79	102	.
CC1CCC(Nc2nc3c(-c4cccc(C(F)(F)F)c4)nnn3c3ccccc23)CC1 (stereo not given)	-17	109	86	105
Cc1cc(C(F)(F)F)n2nc(C(N)=O)cc2n1	-55	115	86	110
CC1(C)CC(=O)CC(=Nc2ccccc2N)C1	-7	109	86	.
CCc1ccnc(NC(=O)CC2(CC(=O)O)CCCCC2)c1	-30	120	87	101
Cc1ccc(CC(C#N)Sc2nnc3n2CCCCC3)cc1 (stereo not given)	-26	101	86	.
CC(CS(=O)(=O)c1ccc2c(c1)NC(=O)C(C)S2)C(=O)NC1CCCCCC1 (stereo not given)	-24	103	92	99
CC(C)(C)c1cc(CN)c(C(=O)O)o1	-15	110	94	102
COc1cc(OC)c(N(C)C(=O)c2c(C)oc3ncn(CC(C)C)c(=O)c23)cc1Cl	.	84	90	104
CCCOc1cccc(C2c3c(oc4cc(C)c(C)cc4c3=O)C(=O)N2CCCN2CCOCC2)c1 (stereo not given)	-31	116	94	105
CN(Cc1ccccc1)C(=O)CN1C(=O)c2cccc3cccc1c23	-43	99	94	100
O=C(Cc1ccc(F)cc1)Nc1cccc2nsnc12	-18	.	.	103
COC(=O)COc1ccc(S(=O)(=O)N2CCN(c3ccccc3F)CC2)cc1Cl	1	102	110	106
CC(C)(C)NC(=O)Cc1ccccc1	-20	85	87	101
CCCCNC(=O)C1CCN(c2nc3ccc(C)cc3[nH]2)CC1	.	94	83	102
COC(=O)C1=C(C)N2[C@@H](C=C1)[C@@](C#N)(C(N)=O)[C@@H](c1ccccc1)[C@@H]2C(=O)OC	-60	106	90	.
Cc1ccc(C)c(Cn2c(=O)n(CCCC(=O)NCc3ccc4c(c3)OCO4)c(=O)c3sccc32)c1	-5	104	86	107
CCOc1ccc(Nc2ccc(S(=O)(=O)N3CCOCC3)cn2)cc1	-2	94	96	.
Cc1ccc(Cl)cc1NC(=O)c1oc2ccc(S(=O)(=O)N3CCCCCC3)cc2c1C	.	111	85	96
Cc1ccc(Nc2nc3c(S(=O)(=O)c4ccccc4)nnn3c3ccc(Cl)cc23)c(C)c1	22	97	98	109
N#Cc1cc(C#N)c(SCCN2CCOCC2)nc1N	-25	102	91	117
CCN1C(=O)/C(=N\N2CCN(C)CC2)c2ccccc21	-23	101	95	.
Nc1nnnn1/N=C1/C(=O)Nc2ccc(Br)cc21	-69	82	48	.
CCSc1nc(-c2ccc(Cl)cc2)[nH]c(=O)n1	-11	112	62	110
CN(c1ccccc1C(=O)NCCc1ccccc1)S(C)(=O)=O	-29	61	85	.
O=c1c(Oc2ccccc2)c(C(F)(F)F)oc2c3c(ccc12)OCO3	14	105	95	106
Cc1ccc(-c2cn3nc(N4CCC(C(=O)Nc5ccccc5C)CC4)sc3n2)cc1	.	104	100	106
CN(Cc1ccc(Cl)cc1)C(=O)CCc1nc(-c2cc3ccccc3[nH]c2=O)no1	-16	.	.	103
CN(C(=O)c1c2c(nc3ccccc13)C(=O)N(C1CCCCC1)C2)c1ccc(F)cc1	.	89	93	99
CC1CCCCN1C(=O)CN1C(=O)c2ccccc2C1=O (stereo not given)	-36	110	97	104
Nc1cc(=O)nc(SCc2ccccc2)n1Cc1ccco1	-10	108	98	105
COc1ccc(-c2ccc(NS(=O)(=O)c3cccc(Cl)c3)cc2)nn1	.	109	87	100
COc1ccccc1-c1nn2c(=O)cc(CN3CCN(S(=O)(=O)c4ccc(C)cc4)CC3)nc2s1	.	96	89	106
CN1CCC(N(C)C(=S)NCCc2ccccc2)CC1	-1	101	96	106
O=C(CSc1nc2c([nH]c3ccccc32)c(=O)n1-c1ccc(F)cc1)N1CCCCC1	.	87	97	99
Cc1nc(C(F)(F)F)ccc1C(=O)NCC(O)c1ccccc1 (stereo not given)	-40	103	89	99
CCSc1nc(-c2ccccc2)nc2c1CCCC2	.	136	83	103
CCOC(=O)c1cccc(NC(=O)C2COc3ccc(OC)cc3C2)c1 (stereo not given)	.	96	89	100
O=C(CSC1CCCC1)Nc1ccc(N2CCOCC2)cc1	-8	81	95	.
O=C(CN1C(=O)c2ccccc2C1=O)Nc1ccc2c(c1)CCC(=O)N2Cc1ccccc1	-41	.	.	100
Cc1ccccc1Cn1c(N2CCC(C(=O)N3CCN(C(=O)c4ccco4)CC3)CC2)nc2ccccc21	-5	122	86	99
O=C1Nc2ccccc2C1C1(O)C(=O)Nc2ccc(F)cc21 (stereo not given)	2	98	91	105
